# PD-1 reversal: reversal of PD-1 mediated T-cell inhibition; primary human CD4 T cells, PD-L1 beads, CellTiter-Glo 96 h; activation, % (test concentration not listed); 29,000 tested, under 10 active; AID 2316;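 active means replicate mean of 50% or more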;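 further: 0% = median vehicle wells and 100% = positive control; 100 nL library stock added to about 50 µL; numbers are from one replicate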
# MITF inh: blocks MITF activity | TRPM1 promoter luciferase, luminescence, 24 h | inhibition, % (test concentration not listed) | 37,000 tested, 0.28% active | AID 2240;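 active means most replicates at 85% or more, or half of them and the mean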;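 further: human melanocyte line stably carrying TRPM1 promoter luciferase reporter; 0% = vehicle wells and 100% = a positive control; the first replicate is given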
# YB-1 expression: YB-1 expression inhibition. U2OS, qRT-PCR YB-1 vs CDIP delta delta Cp, 16 h; stronger effect = higher value; zero = DMSO, each unit about twofold. delta delta Cp (YB-1 minus CDIP) (no concentration beside the values). 30,000 tested, 0.37% active;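 active means delta delta Cp rounded down to an integer at or above 3, about 3 SD of DMSO wells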;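 further: higher means less YB-1 transcript or more CDIP transcript relative to DMSO; stock transfer was 100 nL into about 100 µL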
# Hedgehog inh: blocks Sonic Hedgehog signaling | Shh-LIGHT2 Gli-luciferase reporter, 30 h | inhibition, % (test concentration not listed) | 22,000 tested, 2.1% active | AID 2313;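 active means replicate mean of 65% or more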;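 further: pathway switched on by Shh-conditioned medium diluted 1 in 25 in low serum; 100 nL library stock added to about 40 µL; 0% = median of neutral wells and 100% = positive control level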
# The depositor's hits bear a star; . = not tested or not shown. A portion of the library; the hit share may differ from the screen's.
# Values in the order: PD-1 reversal	MITF inh	YB-1 expression	Hedgehog inh
O=C1CC(SCCc2nc3ccccc3[nH]2)C(=O)N1c1ccc(F)cc1 (configuration not stated)
  0.6	-3	.	.
C[C@H](CO)N1C[C@H](C)[C@H](CN(C)S(=O)(=O)c2ccc(F)cc2)Oc2c(NC(=O)CCCCCC(=O)Nc3ccccc3N)cccc2C1=O
  0.5	10	-0.19	.
Cc1cc(C(=O)Nc2cccc3c2O[C@@H](CN(C)Cc2ccc4c(c2)OCO4)[C@H](C)CN([C@H](C)CO)C3=O)n(C)n1
  -3.4	-4	0.053	-4
NC(=O)CSc1nnc(-c2cccnc2)n1-c1cccc(C(F)(F)F)c1
  -1.8	11	.	.
Cc1cc(C)c2oc(-c3ccc(NC(=O)COc4ccccc4[N+](=O)[O-])cc3)nc2c1
  -0.8	-15	.	.
CC(=O)Nc1ccccc1-c1nc2ccccc2nc1OCC(=O)c1ccc(Br)cc1
  1.2	-4	.	.
Cc1cc(C(=O)Nc2cccc3c2O[C@@H](CN(C)S(=O)(=O)c2cccs2)[C@H](C)CN([C@H](C)CO)C3=O)n(C)n1
  0.1	-2	0.41	13
COc1ccc(NC(=O)Nc2ccc3c(c2)C(=O)N([C@H](C)CO)C[C@H](C)[C@H](CN(C)C(=O)C2CCCCC2)OCCCC[C@@H](C)O3)cc1
  .	0	-0.073	2
Cc1ccc(S(=O)(=O)Nc2ccc3c(c2)C(=O)N([C@@H](C)CO)C[C@H](C)[C@@H](CN(C)C(=O)Nc2ccc(C(F)(F)F)cc2)O3)cc1
  0.3	15	0.35	22
C[C@@H]1CN([C@H](C)CO)C(=O)c2cccc(NC(=O)c3nc4ccccc4s3)c2O[C@H]1CN(C)S(=O)(=O)c1ccc(F)cc1
  -2.1	8	0.28	17
Cc1cc(O)c2c(c1)C(=O)C13C(C2=O)C(=O)C2C(O)C1C1C(O)C3C(=O)C3C(=O)c4c(O)cc(C)cc4C(=O)C321 (configuration not stated)
  -1.1	72	-0.27	-29
C[C@H](CO)N1C[C@H](C)[C@H](CN(C)Cc2ccc(C(=O)Nc3ccccc3N)cc2)Oc2ccc(NC(=O)Nc3ccc(C(F)(F)F)cc3)cc2C1=O
  1.8	-2	-0.03	.
Cc1noc(C)c1NC(=O)Nc1ccc2c(c1)CC(=O)N([C@@H](C)CO)C[C@H](C)[C@H](CN(C)C)O2
  0.8	0	-0.091	.
C[C@@H]1CN([C@@H](C)CO)C(=O)c2cc(NC(=O)Cn3cnnn3)ccc2O[C@@H]1CN(C)C(=O)Nc1ccccc1
  1.8	-2	-0.053	-25
Cc1ccc(S(=O)(=O)Nc2ccc3c(c2)CC(=O)N([C@@H](C)CO)C[C@H](C)[C@@H](CN(C)S(=O)(=O)c2ccc(F)cc2)O3)cc1
  1.2	-15	-0.59	.
COc1cccc(NC(=O)Cn2cnc3c2c(=O)n(C)c(=O)n3C)c1
  0.0	21	.	.
CCCC(O)c1c(O)cccc1C1(O)CC(=O)C/C1=C\C(O)CC(=O)O (configuration not stated)
  -15	15	-0.52	-4
C[C@@H]1CCCCO[C@H](CN(C)Cc2ccncc2)[C@@H](C)CN([C@H](C)CO)C(=O)c2cc(NS(=O)(=O)c3ccc(F)cc3)ccc2O1
  .	-11	0.036	9
C[C@@H]1CN([C@H](C)CO)C(=O)c2cccc(NC(=O)Nc3ccccc3)c2O[C@H]1CN(C)Cc1ccccc1
  -4.8	18	0.21	17
Cc1c(NC(=O)COc2ccc(Br)cc2)cccc1C(=O)O
  1.7	-59	.	.
COc1ccc(CN(C)C[C@H]2Oc3ccc(NC(=O)CCCCCC(=O)Nc4ccccc4N)cc3CC(=O)N([C@@H](C)CO)C[C@H]2C)cc1
  1.5	7	-0.32	.
CCc1ccc(-n2c(SCC(=O)Nc3cc(Cl)ccc3C)nnc2-c2ccncc2)cc1
  -2.8	15	.	.
COc1ccc(OC)c(C(C)NC(=O)Nc2ccc([N+](=O)[O-])cc2OC)c1 (configuration not stated)
  1.8	-11	.	.
C[C@H]1CN([C@@H](C)CO)C(=O)c2cc(NC(=O)C3CCCCC3)ccc2O[C@H]1CN(C)CC1CCCCC1
  2.0	-9	0.46	.
COc1c(C=O)c(O)cc2c1C(=O)c1ccccc1C2=O
  -1.9	19	-0.099	-28
Cc1cc(=O)[nH]c(SC(C)C(=O)Nc2cccc3ccccc23)n1 (configuration not stated)
  0.7	3	.	.
C[C@@H]1CN([C@@H](C)CO)C(=O)c2cc(NS(=O)(=O)c3ccc(F)cc3)ccc2O[C@H]1CN(C)S(=O)(=O)c1ccc(Cl)cc1
  0.9	8	-0.18	.
COC(=O)N1c2ccccc2C=CC1C#N (configuration not stated)
  -0.8	-18	-0.81	.
C[C@H](CO)N1C[C@H](C)[C@H](CN(C)S(=O)(=O)c2cccs2)Oc2ccc(NC(=O)CCN3CCOCC3)cc2CC1=O
  1.2	-14	0.13	8
C[C@H]1CN([C@@H](C)CO)C(=O)c2cc(NC(=O)CCCCCC(=O)Nc3ccccc3N)ccc2O[C@@H]1CN(C)C(=O)Nc1ccc(C(F)(F)F)cc1
  1.3	-2	0.13	.

# Of the compounds above, 3 contain an aryl thioether with sulfur outside any ring:
# Values in the order: PD-1 reversal	MITF inh	YB-1 expression	Hedgehog inh
NC(=O)CSc1nnc(-c2cccnc2)n1-c1cccc(C(F)(F)F)c1
  -1.8	11	.	.
CCc1ccc(-n2c(SCC(=O)Nc3cc(Cl)ccc3C)nnc2-c2ccncc2)cc1
  -2.8	15	.	.
Cc1cc(=O)[nH]c(SC(C)C(=O)Nc2cccc3ccccc23)n1 (configuration not stated)
  0.7	3	.	.

# (cont.)
# Values in the order: PD-1 reversal	MITF inh	YB-1 expression	Hedgehog inh
O=C(Nc1cccnc1)c1nc2ncccn2n1
  0.5	-11	-0.07	9
COc1ccc(OCC(=O)Nc2sc(C)c(C)c2C(N)=O)cc1
  3.8	-6	.	.
COc1ccc(CN(C)C[C@@H]2Oc3ccc(NC(=O)Nc4cccc5ccccc45)cc3CC(=O)N([C@H](C)CO)C[C@@H]2C)cc1
  .	-2	0.37	-44
O=C1c2ccccc2S(=O)c2ccccc2S(=O)(=O)N1Cc1ccccc1 (configuration not stated)
  -6.0	47	-0.34	13
Cc1ccc(S(=O)(=O)Nc2ccc3c(c2)C(=O)N([C@H](C)CO)C[C@H](C)[C@@H](CN(C)C(=O)NC2CCCCC2)OCCCC[C@@H](C)O3)cc1
  0.7	-5	0.13	.
CSc1sc(C(=O)O)c(I)c1S(=O)(=O)C(C)C
  -0.2	4	0.31	0
COc1ccc(NC(=O)N(C)C[C@H]2Oc3c(NC(=O)C4CC4)cccc3C(=O)N([C@H](C)CO)C[C@@H]2C)cc1
  .	-9	0.51	-31
C[C@@H]1CCCCO[C@@H](CN(C)S(C)(=O)=O)[C@@H](C)CN([C@H](C)CO)C(=O)c2cc(NC(=O)NC3CCCCC3)ccc2O1
  .	3	0.038	.
C[C@H]1CN([C@@H](C)CO)C(=O)c2cccc(NC(=O)C3CCOCC3)c2O[C@H]1CN(C)S(=O)(=O)c1ccc(Cl)cc1
  -0.2	-7	0.14	84*
CNC[C@@H]1Oc2c(NS(=O)(=O)c3ccc(Cl)cc3)cccc2C(=O)N([C@@H](C)CO)C[C@@H]1C
  1.9	-5	-0.42	-24
COc1cc2occ(-c3ccc4c(c3)OCO4)c(=O)c2c(OC)c1OC
  0.9	-105	0.79	-18
CC(C)[C@@H]1NC(=O)[C@@H](Cc2c[nH]c3ccccc23)n2c1nc1ccccc1c2=O
  -1.6	19	1.8	-9
COc1ccc(S(=O)(=O)Nc2ccc3c(c2)C(=O)N([C@H](C)CO)C[C@H](C)[C@@H](CN(C)Cc2ccc(C(=O)O)cc2)O3)cc1
  0.2	-8	-0.65	-3
Cc1noc(C)c1NC(=O)Nc1ccc2c(c1)CC(=O)N([C@H](C)CO)C[C@@H](C)[C@@H](CN(C)Cc1ccc(Oc3ccccc3)cc1)O2
  -1.3	-15	-0.3	18
C[C@@H]1CN([C@@H](C)CO)C(=O)Cc2cc(NC(=O)Cc3ccccc3)ccc2O[C@@H]1CN(C)C(=O)Nc1ccc(C(F)(F)F)cc1
  0.7	-8	0.0065	-3
CC(Oc1ccccc1)C(=O)NCCN1CCOCC1 (configuration not stated)
  -0.7	-2	.	.
COc1cccc(Cc2nnc(-c3c(-c4ccccc4)noc3C)o2)c1
  -1.0	16	0.065	.
O=C(c1ccc2c(c1)OCO2)N1CCCCC1
  2.8	-2	0.76	24
COc1c(O)c(C(=O)CCc2ccccc2)c(OC)c(OC)c1OC
  -1.1	-18	0.3	8
CN1C(=O)c2cccc3cccc(c23)[S+]1c1ccccc1C(=O)O (configuration not stated)
  3.1	-2	-0.12	-35
O=C(O)CCC(=O)c1ccc2c(c1)OCCCO2
  -0.2	5	0.09	-6
C[C@@H]1CN([C@H](C)CO)C(=O)Cc2cc(NS(C)(=O)=O)ccc2O[C@H]1CN(C)C(=O)Nc1cccc2ccccc12
  .	7	-1	47
C[C@@H]1CN([C@H](C)CO)C(=O)Cc2cc(NS(=O)(=O)c3ccc(F)cc3)ccc2O[C@@H]1CN(C)Cc1ccc2c(c1)OCO2
  -0.3	-11	0.23	1
Cc1noc(C)c1S(=O)(=O)N(C)C[C@@H]1Oc2ccc(N(C)C)cc2CC(=O)N([C@H](C)CO)C[C@H]1C
  -0.3	-10	-0.16	.
C[C@H]1CN([C@@H](C)CO)C(=O)c2cccc(NC(=O)c3nc4ccccc4s3)c2O[C@@H]1CN(C)C(=O)Nc1ccc(C(F)(F)F)cc1
  .	9	-0.17	-3
CCC(C)C(=O)O[C@H]1C[C@H](O)C=C2C=C[C@H](C)[C@H](CC[C@@H](O)C[C@@H](O)CC(=O)O)C21 (some centres not stated)
  .	3	0.1	30
C[C@@H]1CCCCO[C@@H](CN(C)S(=O)(=O)c2ccc(Cl)cc2)[C@@H](C)CN([C@H](C)CO)C(=O)c2cc(NC(=O)CCC(F)(F)F)ccc2O1
  -1.5	7	0.045	35
Cc1noc(C)c1S(=O)(=O)Nc1cccc2c1O[C@@H](CN(C)C(=O)Nc1ccccc1)[C@@H](C)CN([C@@H](C)CO)C2=O
  -0.2	1	-0.24	-12
CCOC(=O)c1nc2c(o1)NC(N)=C(C#N)C2c1ccc(Cl)cc1 (configuration not stated)
  0.2	-2	-0.11	12
Cc1cc2nc(SCC(=O)NN)[nH]c2cc1C
  -0.1	9	0.054	-21

# Further structures.
# Values in the order: PD-1 reversal	MITF inh	YB-1 expression	Hedgehog inh
Cc1noc(C)c1S(=O)(=O)Nc1cccc2c1O[C@@H](CN(C)Cc1ccc(Cl)c(Cl)c1)[C@@H](C)CN([C@@H](C)CO)C2=O
  .	-14	0.021	51
C[C@H]1CN([C@@H](C)CO)C(=O)Cc2cc(NC(=O)CCC(F)(F)F)ccc2O[C@H]1CN(C)Cc1ccccc1
  -0.9	5	-0.42	45
C[C@@H]1CN([C@H](C)CO)C(=O)c2cccc(NC(=O)CCCCCC(=O)Nc3ccccc3N)c2O[C@@H]1CN(C)S(=O)(=O)c1cn(C)cn1
  1.5	-10	-0.043	.
O=C(O)CCNS(=O)(=O)c1cccc(F)c1
  0.7	-10	.	.
C[C@H](CO)N1C[C@H](C)[C@H](CN(C)Cc2ccccc2)Oc2ccc(NC(=O)Cn3cnnn3)cc2CC1=O
  0.5	-1	-0.013	-27
C[C@@H]1CN([C@H](C)CO)C(=O)c2cccc(NC(=O)C3CC3)c2O[C@H]1CN(C)C
  0.7	0	0.36	-7
CN1[C@@H](CC(=O)c2ccccc2)CCC[C@H]1C[C@H](O)c1ccccc1
  -0.1	8	0.13	-23
C[C@@H]1CN([C@H](C)CO)C(=O)c2cccc(NC(=O)C3CC3)c2O[C@H]1CN(C)C(=O)NC1CCCCC1
  0.1	-6	0.16	-17
C[C@@H]1CN([C@H](C)CO)C(=O)c2cccc(NC(=O)c3ccc(-c4nccs4)cc3)c2O[C@@H]1CN(C)Cc1ccncc1
  -2.8	-5	0.14	6
C[C@@H]1CN([C@@H](C)CO)C(=O)c2cc(NS(=O)(=O)c3ccccc3)ccc2O[C@@H]1CN(C)Cc1ccccc1
  1.2	-6	-0.13	3
Cc1noc(C)c1NC(=O)Nc1ccc2c(c1)CC(=O)N([C@@H](C)CO)C[C@@H](C)[C@@H](CN(C)S(=O)(=O)c1ccc(Cl)cc1)O2
  .	-8	-0.12	.
COc1ccc(S(=O)(=O)N(C)C[C@H]2Oc3ccc(NC(=O)C4CC4)cc3C(=O)N([C@@H](C)CO)C[C@H]2C)cc1
  0.3	-11	-0.4	2

# Some of these compounds in order of count of non-hydrogen atoms, ascending:
# Values in the order: PD-1 reversal	MITF inh	YB-1 expression	Hedgehog inh
CCOC(=O)c1nc2c(o1)NC(N)=C(C#N)C2c1ccc(Cl)cc1 (configuration not stated)
  0.2	-2	-0.11	12
Cc1cc(C)c2oc(-c3ccc(NC(=O)COc4ccccc4[N+](=O)[O-])cc3)nc2c1
  -0.8	-15	.	.
C[C@@H]1CN([C@H](C)CO)C(=O)c2cccc(NC(=O)CCCCCC(=O)Nc3ccccc3N)c2O[C@@H]1CN(C)S(=O)(=O)c1cn(C)cn1
  1.5	-10	-0.043	.

# Assay outcomes: PubChem BioAssay, Broad Institute
